# Source: PubChem BioAssay (several laboratories)
# Sa RN4220 lethal: S. aureus RN4220 growth inhibition; OD600, 16 h; inhibition, % (no concentration beside the values); hit rate 0.33% among 330,000; AID 1259311;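 active means z-score of -3 or lower and OD600 up to 0.18 on both plates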;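 further: plate controls were untreated cells for no effect and reference antibiotic for full effect; stock transfer was 100 nL into about 80 µL; one replicate is shown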
# Sa ugtP lethal: kills S. aureus RN4220 lacking UgtP. growth inhibition, % (concentration not given with the values). AID 1259309. hit rate 0.54% among 330,000. S. aureus RN4220 ugtP deletion, OD600 growth, 16 h; some inactives read as strong as hits;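 active means z-score under -3 and OD600 up to 0.15 on both plates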;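 further: plate controls were untreated wells for no effect and antibiotic for full effect; wells of about 80 µL received 100 nL stock; the first replicate is given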
# PrP UTR inh: suppresses PrP 5' UTR mRNA reporter expression | cell-based PrP 5' UTR mRNA reporter, plate reader | inhibition, % (test concentration not listed) | hit rate 0.35% among 340,000 | AID 488862;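 active means every replicate at 50% or more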;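 further: 0 = median of the neutral control wells; tested in H4 reporter cells; numbers are from one replicate; inactives centre near -14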
# Bead autofluor: compound fluorescence in toxin protease inhibitor counterscreen; compound autofluorescence counterscreen, microsphere flow cytometry; active compounds read high; fluorescence intensity (test concentration not listed); hit rate 3.1% among 360,000; AID 624483;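 active means at least 3 SD above the mean of all compounds, about 16000 in these data; inconclusive means too few beads counted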;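 further: 100 nL of 1 mM stock went into each well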
# Mtb hypoxia rep: inhibitors of hypoxia-regulated fluorescent reporter in Mycobacterium tuberculosis | hit rate 0.1% among 300,000 | M. tuberculosis hypoxia-regulated fluorescent reporter, fluorescence | fluorescence inhibition, % (no concentration beside the values);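 active means 35 to 45% if threefold the growth effect, above 45% if 1.5-fold the growth effect; inactive means the rest, general growth blockers included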;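 further: wells of about 50 µL received 100 nL stock; 0% = vehicle wells and 100% = reference inhibitor wells; whole bacteria with a GFP reporter of the hypoxia response; strong numbers were not always called active; many hits fall short of the cut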
# BJeLR lethal: BJeLR cell viability loss | hit rate 0.17% among 300,000 | BJeLR (HRASV12) viability, CellTiter-Glo ATP luminescence, 48 h; reference of the scale not given here | inhibition, % (test concentration not listed);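 active means replicate mean above 50%; inconclusive means above 50% but judged a plate artefact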;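 further: 50 nL library stock added to about 25 µL; numbers are from one replicate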
# Mtb hypoxia rep growth: further read-out of Mtb hypoxia rep, marked with its call; growth inhibition, %; measured here: M. tuberculosis growth (absorbance);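 0% = vehicle and 100% = reference antibiotic; read after six days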
# * marks the source's active call; other numbers are inactive results; ? = inconclusive; nt = not tested or not shown.
SMILES,Sa RN4220 lethal,Sa ugtP lethal,PrP UTR inh,Bead autofluor,Mtb hypoxia rep,Mtb hypoxia rep growth,BJeLR lethal
Cc1c(C(c2ccc(Br)cc2)c2c(O)c3ccccc3oc2=O)c(=O)n(-c2ccccc2)n1C (stereo not drawn),1.0,-3,-19,4431,-7,4,-6
COC(=O)C1=C(c2ccc(-c3ccccc3)c(F)c2)CC2CCC1N2C(=O)N1CCCCC1 (stereo not drawn),6.6,-9,nt,nt,3,10,nt
CCSC(C)CC1C/C(=N/O)c2c(CC)noc2C1 (stereo not drawn),nt,nt,-13,11229,nt,nt,1
COc1ccc(C)cc1NCc1cccc(OC)c1OC,4.5,8,-11,22091*,5,8,-9
O=C(O)CC(SCC(=O)NC1CCCc2ccccc21)C(=O)O (stereo not drawn),1.2,2,-23,5126,4,3,8
COc1ccc(OC)c(-n2nnnc2SCC(=O)Nc2ccccc2OC)c1,1.6,4,-2,3965,2,2,-1
CCN(CC)CCN(C)C(=O)c1ccc(OC2CCN(C(=O)C3CC3)CC2)cc1,4.6,-5,-11,2304,-6,-3,3
CCC(C)C(Nc1ccc(C(=O)OC)cc1[N+](=O)[O-])C(=O)OC (stereo not drawn),5.2,3,-29,2542,5,2,-6
Cc1cccc(NS(=O)(=O)c2cc(C(=O)NCCC3=CCCCC3)ccc2Cl)c1,-10,-14,-28,11230,4,1,0
COC(=O)Cc1ccc(NC(=S)NCCC(C)C)cc1,4.1,5,-7,2328,7,8,0
COc1cccc(-c2csc(N3CCN(C(=S)Nc4cccc(C)c4)CC3)n2)c1,4.1,-9,-44,4941,3,-9,-6
O=C1NC(=O)C(c2ccc(Cl)cc2)N1 (stereo not drawn),2.6,3,3,4108,17,10,-8
CC(=O)NC(Cc1cc(C)ccc1C)C(=O)N1CCN(C(=O)c2ccc(Br)cc2)CC1 (stereo not drawn),6.4,2,-11,2462,-6,2,-2
O=Cc1cc(N=Nc2ccc(S(=O)(=O)O)cc2)ccc1O,6.5,5,-8,5132,2,-2,8
COc1ccccc1CNC(=O)c1cc(C)nn1-c1ccccc1,7.4,15,-10,4743,8,-1,0
Oc1ccc(/C=N/N=C/c2ccc(O)cc2)cc1,nt,nt,-41,3741,nt,nt,-7
Cc1ccc(C)c(S(=O)(=O)Nc2ccc(C(=O)NCC(c3ccco3)N(C)C)cc2)c1 (stereo not drawn),0.6,-1,-17,?,1,4,-3
COC(=O)c1cccc(NC(=S)Nc2cc(Cl)ccc2OC)c1,-2.5,0,2,4429,12,5,0
CCC1C/C(=C\c2cccnc2)C(=O)/C(=C/c2cccnc2)C1 (stereo not drawn),2.0,-5,3,2539,nt,nt,nt
c1ccc(C(c2nnnn2C2CCCC2)N2CCN(c3nc4ccccc4s3)CC2)cc1 (stereo not drawn),0.7,13,-12,3377,-1,0,-12
Clc1ccc(OCc2nnc3n2N=C(c2ccc4c(c2)OCCO4)CS3)c(Cl)c1,16,-19,-6,6010,11,14,7
O=S(=O)(N=C(NS(=O)(=O)c1ccccc1)c1ccccc1)c1ccccc1,7.6,5,nt,nt,6,0,nt
Cc1ccc(O)c(NC(=O)C2=CC(c3ccco3)=NS(=O)(=O)N2C)c1,4.9,4,-15,5501,nt,nt,-5
Cc1ccc(C)c(S(=O)(=O)N2CCN(C(=O)c3cncc(Br)c3)CC2)c1,2.2,7,-9,3550,0,-1,2
CC(C)C[C@@]12C(=O)N(c3cccc(F)c3)C(=O)N1[C@H](c1ccc(Cl)cc1)[C@@H]1C(=O)N(C3CCCCC3)C(=O)[C@@H]12,nt,nt,-23,3933,nt,nt,7
# (listing goes on)
SMILES,Sa RN4220 lethal,Sa ugtP lethal,PrP UTR inh,Bead autofluor,Mtb hypoxia rep,Mtb hypoxia rep growth,BJeLR lethal
COC(=O)C1CSC(c2ccc(Cl)cc2)N1C(=O)c1ccccc1 (stereo not drawn),7.8,6,-17,4428,18,5,1
Cn1c(=O)c2c(nc(SCCCO)n2Cc2ccccc2Cl)n(C)c1=O,0.5,4,-5,16181*,1,0,2
CC1(C)Oc2ccc3ccc(=O)oc3c2-c2cnoc21,nt,nt,-41,4247,nt,nt,-3
OC(CN1CCOCC1)CN1CCOCC1,-8.1,-3,-28,2528,12,9,-9
CC(=O)c1cc2c(cc1NC(=O)C1CC1)OCO2,2.5,-3,-7,2752,nt,nt,-2
COc1cccc(NC(=O)CN2C(=O)NC(Cc3c[nH]c4ccccc34)C2=O)c1 (stereo not drawn),-1.9,-9,-2,3055,3,-1,nt
O=C(N/N=C/c1ccc2c(c1)OCO2)c1ccc(COCC(F)(F)C(F)F)cc1,nt,nt,-13,6705,nt,nt,-6
Cc1cc(C)cc(NC(=O)COC(=O)CNC(=O)C2CCCCC2)c1,-2.6,8,1,8224,12,6,nt
Cc1cnc(NCCc2ccccc2)s1,3.8,13,-27,2948,1,2,-2
COc1ccc(Cc2nc3ccc(C(=O)NC(C)c4cn(C)nc4C)cc3o2)cc1 (stereo not drawn),-1.5,10,-3,6112,11,-1,5
O=C(NCCc1ccccc1)c1ccc2nccnc2c1,2.7,4,39,2346,-11,-5,11
COc1cc2c(cc1OC)-c1nnc(C)n1C1(CCCC1)C2,4.8,7,-13,5093,2,4,4
Cc1ccc(N(C)S(=O)(=O)c2cccc(C(=O)OCC(=O)c3c(N)n(C)c(=O)n(C)c3=O)c2)cc1,2.7,1,2,3113,-2,7,nt
Nc1ccc(S(=O)(=O)Nc2nccc(/C=C/c3ccc(Cl)cc3)n2)cc1,0.7,1,-16,5998,-1,9,-4
COCCCNCC1C(Oc2ccc(Cl)cc2)C(=O)N1c1ccccc1C (stereo not drawn),4.9,8,-36,10740,13,0,0
O=C(CNC(=O)c1cccc(OC(F)F)c1)OCn1nnc2ccccc2c1=O,6.0,5,-17,4578,-1,-5,7
COc1ccc(OC)c(NC(=O)c2c(NC(=O)CCC(=O)O)sc3c2CCCCC3)c1,12,-2,-12,2506,13,4,1
CC(=O)N1CCN(c2ccc(NCc3ccc(C(C)C)cc3)cc2)CC1,1.3,8,-5,3574,-1,8,-2
CCc1onc(C)c1C(=O)O,4.9,9,-10,2720,6,6,2
CC(=O)c1cccc(NC2c3ccccc3C(=O)N2Cc2ccc3c(c2)OCO3)c1 (stereo not drawn),-0.8,-4,-10,7372,1,16,-7
CC(C)N1C(=O)S/C(=C\c2ccc(-c3ccc(Cl)c(C(=O)O)c3)o2)C1=O,5.8,-12,-48,nt,-1,1,0
COCCCn1c(=NC(=O)c2ccncc2)c(C#N)cc2c(=O)n3cccc(C)c3nc21,5.4,4,-27,10241,-2,2,-4
CC(C)OC(=O)Nc1ccc2c(c1)N(C(=O)CCN(C)C)c1ccccc1CC2,0.7,5,-19,3230,1,6,-4
CC(C(=O)NC1=NCCS1)N1C(=O)C2CC=CCC2C1=O (stereo not drawn),2.9,6,-5,4583,nt,nt,5
Cc1cc(-c2n[nH]c(=S)n2/N=C/c2cccs2)n[nH]1,nt,nt,-2,2081,nt,nt,6
# (cont.)
SMILES,Sa RN4220 lethal,Sa ugtP lethal,PrP UTR inh,Bead autofluor,Mtb hypoxia rep,Mtb hypoxia rep growth,BJeLR lethal
Cc1nccn1CC(O)COc1ccccc1 (stereo not drawn),7.0,2,-5,2858,5,8,2
CCOP(=O)(c1ccc(N(C)C)cc1)C(O)c1cc(OC)c(OC)c(OC)c1 (stereo not drawn),5.2,6,-31,5650,5,3,5
O=C(CSc1n[nH]c(=O)n1-c1ccccc1)N1CCOCC1,0.1,11,-30,3082,12,6,-2
CCOc1cccc(C(=O)Nc2cccc(-c3nc4ncccc4o3)c2C)c1,5.5,-5,-14,3128,nt,nt,-1
Cc1cccc(C(=O)Nc2sc3c(c2C(=O)O)CCC3)c1,27,16,-15,4709,8,-1,19
COC(=O)c1ccc(C2c3c(oc4cc(C)c(C)cc4c3=O)C(=O)N2CCCN(C)C)cc1 (stereo not drawn),0.5,-5,nt,nt,nt,nt,-2
CCN1/C(=C2/SC(=S)NC2=O)Sc2ccccc21,nt,nt,-18,2017,nt,nt,1
CC(CC(=O)NCc1ccco1)=NNC(=O)c1ccc([N+](=O)[O-])cc1Cl,2.5,7,nt,nt,-1,2,nt
Cn1c(/C=N/Nc2nc3ccccc3[nH]2)nc2ccccc21,nt,nt,-121,2426,nt,nt,-1
CCOc1ccc(N=C2C(=O)Nc3ccc(C)c(Br)c32)cc1,2.9,9,-19,3967,12,-1,-4
Cc1cc2c3c(c1)C(C)CC(C)(C)N3C(=O)C2=C(C#N)C#N (stereo not drawn),87,68,-4,4136,15,4,8
COC(=O)c1cc(NC(=O)/C=C/c2ccccc2)ccc1O,6.3,8,nt,nt,12,4,1
O=c1ccc(-c2ccc([N+](=O)[O-])cc2)nn1-c1ccccc1,5.6,4,-10,2257,3,-3,-7
CC1CC(=O)Nc2ccccc2N1C(=O)CSc1nnnn1C (stereo not drawn),-0.2,-1,-5,3859,3,5,nt
c1ccc(C2C/C(=N\N3CCOCC3)c3ccccc3O2)cc1 (stereo not drawn),nt,nt,-13,2106,nt,nt,-2
CCn1c(SCC(=O)Nc2cc(C)on2)nnc1-c1ccc(S(=O)(=O)N2CCN(C)CC2)cc1,2.5,2,-3,24027*,1,5,7
Cc1cc(NN)nc(Cc2ccccc2)n1,3.2,4,-17,3730,12,5,2
Cc1ccc(Oc2ccc(OCC(=O)NC(C)C(=O)O)cc2)cc1 (stereo not drawn),6.2,11,-18,10990,5,6,2
CCOc1ccc(NC(=O)C2CCCN(C(=O)Nc3ccccc3)C2)cc1 (stereo not drawn),2.3,8,-13,3088,11,12,-4
Cc1cc(C(=O)NN=C2CC(=O)c3ccccc32)c(C)n1-c1ccccc1,-7.4,-1,nt,nt,5,-11,nt
CC(C)n1c(Oc2ccc(F)cc2)nc2c1c(=O)n(C)c(=O)n2C,2.7,4,-15,4073,8,8,2
Cc1cc(C(F)(F)F)n2ncc(C(=O)O)c2n1,1.4,9,-25,5583,11,3,-2
COC(=O)c1sccc1NC(=O)CC1C(=O)NCCN1C(=O)c1ccc(N(C)C)cc1 (stereo not drawn),3.2,3,-21,5387,-3,11,-2
Cc1ccc(C(=O)NNC(=O)c2ccoc2C)s1,1.5,2,-12,5180,9,1,nt
CN1CCN(CCCNC(=O)c2ccc(CSCc3cccc(Cl)c3)o2)CC1,-9.1,-5,nt,nt,20,6,-7

# An excerpt from above in order of count of non-hydrogen atoms, lowest first.
SMILES,Sa RN4220 lethal,Sa ugtP lethal,PrP UTR inh,Bead autofluor,Mtb hypoxia rep,Mtb hypoxia rep growth,BJeLR lethal
COC(=O)c1cc(NC(=O)/C=C/c2ccccc2)ccc1O,6.3,8,nt,nt,12,4,1
CC(CC(=O)NCc1ccco1)=NNC(=O)c1ccc([N+](=O)[O-])cc1Cl,2.5,7,nt,nt,-1,2,nt
CCOc1cccc(C(=O)Nc2cccc(-c3nc4ncccc4o3)c2C)c1,5.5,-5,-14,3128,nt,nt,-1

# Next section:
SMILES,Sa RN4220 lethal,Sa ugtP lethal,PrP UTR inh,Bead autofluor,Mtb hypoxia rep,Mtb hypoxia rep growth,BJeLR lethal
O=C(CCn1cnc(-c2ccccc2)c1-c1ccccc1)NN=Cc1ccc(O)cc1,3.4,-1,nt,nt,-4,-4,nt
CCOC(=O)c1c(NC(=O)CSc2nc3ccccc3s2)sc(C(C)=O)c1C,2.3,2,-20,12408,8,-5,-5
COc1cc(OC)cc(C(=O)Nc2cccc3nc(C)ccc23)c1,6.1,8,-15,3354,14,8,-2
CCNC(=O)CON=C1c2ccccc2-c2ccccc21,4.3,2,-8,2671,1,12,-5
CNC(=O)C(=O)NCCC1CCCCN1S(=O)(=O)c1cccs1 (stereo not drawn),2.0,3,-8,?,5,0,9
Cc1ccc(-c2cn3cc(C)ccc3n2)cc1,-2.7,9,85*,3205,11,16,nt
COc1ccc(OC)c(CN(CCN2CCOCC2)C(=O)Nc2ccccc2)c1,8.6,22,-35,2612,11,11,0
CC(C)(c1cc(Cl)c(O)c(CN2CCOCC2)c1)c1cc(Cl)c(O)c(CN2CCOCC2)c1,2.5,6,-24,3390,9,8,nt
COC(=O)c1ccc(C=NNC(=S)NCCN2CCOCC2)cc1,9.3,19,nt,nt,2,0,nt
COc1ccc(C(C)(C)C)cc1NC(=O)CN1C(=O)C(=O)N(Cc2ccco2)C1=O,4.9,6,-13,6559,6,-4,nt
CCn1cc(S(=O)(=O)Nc2cc(C(=O)OC)ccc2C)cn1,-0.7,0,-20,5355,2,10,13
COC(=O)c1scc(C)c1NC(=O)CC1NCCNC1=O (stereo not drawn),4.6,3,nt,nt,-1,-6,-3
